STK33 kinase inh: inhibitors of purified STK33 kinase, primary screen, biochemical, ADP-Glo luminescence, homogeneous, cell-free. Serine/threonine-protein kinase 33 (Homo sapiens), Q9BYT3. MBP phosphorylation. inhibition, % at 10 µM. hit rate 0.073% among 320,000. AID 2661, 2010;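 active = inhibition at or above 25%, using the most active replicate where run in duplicate; inactive = inhibition below 25%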
Target sequence (Q9BYT3 whole entry, looked up): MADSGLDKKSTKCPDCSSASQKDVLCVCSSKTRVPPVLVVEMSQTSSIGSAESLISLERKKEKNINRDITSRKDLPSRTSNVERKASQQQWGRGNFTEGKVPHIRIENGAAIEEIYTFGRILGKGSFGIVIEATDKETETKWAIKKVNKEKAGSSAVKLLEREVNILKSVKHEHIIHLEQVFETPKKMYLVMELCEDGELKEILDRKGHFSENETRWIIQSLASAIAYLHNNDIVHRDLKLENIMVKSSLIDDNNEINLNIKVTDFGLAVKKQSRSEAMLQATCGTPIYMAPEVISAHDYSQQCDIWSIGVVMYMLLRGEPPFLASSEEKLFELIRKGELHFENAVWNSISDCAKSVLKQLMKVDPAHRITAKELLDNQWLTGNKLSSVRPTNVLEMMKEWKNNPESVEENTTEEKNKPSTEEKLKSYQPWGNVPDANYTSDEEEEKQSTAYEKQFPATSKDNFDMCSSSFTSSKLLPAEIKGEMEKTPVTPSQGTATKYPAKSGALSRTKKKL
An asterisk follows results filed as active. Only part of the results is shown; most or all hits stand in other tables.

STK33 kinase inh	SMILES
-1.6	COc1ccc(CCNC(=O)C(=O)NCC2OCCN2S(=O)(=O)c2ccc(C)cc2)cc1OC (configuration not stated)
0.6	O=C(NCC1CCCO1)c1ccc(NS(=O)(=O)c2cccc([N+](=O)[O-])c2)cc1 (configuration not stated)
-0.3	Cc1cccc(-n2c(SCC(=O)N(C)C3CCS(=O)(=O)C3)nc3ccccc3c2=O)c1C (configuration not stated)
-0.8	COc1cc2c(cc1OC)C1(CCCC1)CNC2C (configuration not stated)
-3.1	O=C(Nc1nc(=O)c2ccccc2s1)c1ccc(Cl)cc1
0.7	O=C(COC(=O)C12CC3CC(CC(Br)(C3)C1)C2)Nc1cccnc1Cl
-0.5	COc1cccc(-n2c(SCC(=O)NCCc3ccccc3)nnc2-c2ccoc2C)c1
-1.1	Cc1cc(C)cc(NS(=O)(=O)c2ccc3c(c2)c(=O)n(C)c(=O)n3C)c1
-0.2	NC(=O)C1CCN(CC(=O)N2c3ccccc3CCc3ccccc32)CC1
-1.0	CCOC(=O)c1nc(NNC(C)=O)sc1C
-2.1	Cc1ccc(CNC(=O)Cc2csc(Nc3nc(=S)[nH]c4ccccc34)n2)cc1
0.3	Cc1ccc(CNC(=O)c2ccc3c(c2)S(=O)(=O)c2ccccc2C3=O)o1
1.2	COc1ccccc1C(=O)NCC1(c2ccccc2)CCCC1
-0.3	Cc1c(NC(=O)c2ccc(Br)o2)c(=O)n(-c2ccccc2)n1C
-2.0	CCN(CC)S(=O)(=O)c1cccc(C(=O)N[C@H](C(=O)Nc2nc3ccccc3s2)C(C)C)c1
-0.3	O=C(Cn1cc2c(n1)CCCC2)NCC1CCCO1 (configuration not stated)
-0.8	COC(=O)c1cc(C#N)c(=O)[nH]c1C
1.4	CCCCOc1ccc(C(=O)Nc2cccc(-n3cnnn3)c2)cc1OC
-0.8	CCCOc1ccc(/C=C/C(=O)OCC(=O)N(C)c2c(N)n(Cc3ccccc3)c(=O)[nH]c2=O)cc1OCC
-2.5	CCCn1c(=O)c2ccccc2n2c(SCc3c(C(=O)OCC)oc4ccccc34)nnc12
-1.8	O=C(CSc1nnc(CNc2ccc(F)cc2)o1)N1c2ccccc2Sc2ccccc21
0.5	Cc1ccc(S(=O)(=O)NCC(=O)N(CC(=O)NCC2CCCO2)Cc2ccccc2)cc1 (configuration not stated)
0.0	COc1ccc2cc(C(c3nnnn3CCc3ccccc3)N3CCCC(C)C3)c(=O)[nH]c2c1 (configuration not stated)
0.5	COc1ccccc1NC(=O)NC1(C(=O)N2CCC(O)CC2)CCCCC1
-0.8	O=C(NCCO)/C(=C\c1ccco1)NC(=O)c1cccs1

(further entries)
STK33 kinase inh	SMILES
0.7	CCOC(=O)c1sc(NC(=O)CCSC)nc1C
-1.5	Cc1ccc(S(=O)(=O)N/N=C\c2cn(CC(N)=O)c3ccccc23)cc1
-1.1	O=C(O)CCC(=O)N(Cc1ccccc1)Cc1ccccc1
-0.7	O=C(NNC(=S)Nc1ccc(Br)cc1)c1ccccc1
-2.5	Cc1ccc(C)c(CN2CCSCC2)c1
0.6	COCCn1c(-c2ccco2)csc1=Nc1cccnc1
-2.9	Cc1ccc(C(=O)c2ncc[nH]2)cc1
1.0	CCOC(=O)C1CCN(C(=O)CCNS(=O)(=O)c2ccc3c(c2)CCN3C(=O)CC)CC1
-2.3	CC(C)CC(=O)Nc1ccc(Nc2ccccc2)cc1
-2.7	c1cnc(N2CCN(Cc3ccc4c(c3)OCO4)CC2)nc1
-0.4	C/C(=N\NC(=O)c1ccn(C)n1)c1ccco1
-1.8	O=C(CSc1ccccn1)Nc1cccc2ccccc12
-0.5	COc1ccccc1CN(C)C(=O)c1ccc(COc2ccccc2)cc1
-1.6	COc1ccc(OC)c(NC(=O)CCCSc2ccccc2)c1
-1.1	CN1CCN(NC(=O)c2cc(Br)ccc2Cl)CC1
-0.1	COC(=O)N/N=C/c1cc(C)n(-c2ccc(F)cc2)c1C
0.1	Cc1cc(N)n(-c2ccc(S(=O)(=O)N3CCOCC3)cc2[N+](=O)[O-])n1
-0.3	Cc1oc2c(c(C)cc3oc(=O)c(CC(=O)N[C@@H](CC(C)C)C(=O)O)c(C)c32)c1C
-1.1	Cc1ccc(S(=O)(=O)N2CCOCC2)cc1C(=O)NCc1cn2ccsc2n1
-2.0	CCOc1ccc(NC(=O)c2ccc(-c3csc(C)n3)cc2)cc1
-1.0	Cn1c(CNC(=O)c2ccco2)nnc1SCC(=O)c1ccccc1
-2.5	O=C(Nc1cccc([N+](=O)[O-])c1)Nc1cnccn1
-0.1	Nc1nccnc1C(=O)OCC(=O)Nc1cccc(S(=O)(=O)N2CCCCC2)c1
-0.9	Cc1ccc(-c2nnn(CCC(=O)N3CCCCC3C)n2)cc1 (configuration not stated)
-1.8	CC(=O)Cc1nsc(NC(=O)c2ccc(COc3cccc(C)c3)o2)n1

Three compounds from above, arranged by count of non-hydrogen atoms, largest number first.
STK33 kinase inh	SMILES
-1.1	Cc1ccc(S(=O)(=O)N2CCOCC2)cc1C(=O)NCc1cn2ccsc2n1
-0.5	COc1ccccc1CN(C)C(=O)c1ccc(COc2ccccc2)cc1
-1.8	O=C(CSc1ccccn1)Nc1cccc2ccccc12

More structures
STK33 kinase inh	SMILES
-0.5	CC(=O)NS(=O)(=O)c1ccc(NC(=O)c2ccccc2F)cc1
0.0	COc1ccc(NC(=S)NNC(=O)c2ccco2)c(OC)c1
0.0	O=C(N1CCCC1)n1c(Cc2ccccc2)nc2ccccc21
-0.6	COc1ccc(C(=O)c2ccccc2)c2c(O)ccc(C(=O)c3ccccc3)c12
-0.7	COc1cc([N+](=O)[O-])ccc1NC(=O)Nn1cnnc1
-0.4	COc1cccc(NC(=O)CN(C)C(=O)COc2cc(C)ccc2Cl)c1
0.0	Cc1ccc(C)c(S(=O)(=O)N2CCCC2CNC(=O)C(=O)NCC2CCCO2)c1 (configuration not stated)
0.6	Cc1coc2cc3oc(=O)c(CC(=O)N4C[C@H]5C[C@@H](C4)c4cccc(=O)n4C5)c(C)c3cc12
0.0	Cc1ccc(NC(=S)NC2CC3CCCC(C2)N3Cc2ccco2)cc1 (configuration not stated)
-0.1	COc1cccc(CNC(=O)CN(c2cc(C)cc(C)c2)S(=O)(=O)c2c(C)noc2C)c1
-0.6	O=C(c1cccs1)N1CCOCC1
-2.0	COc1ccccc1NC(=O)Cn1c2ccc(F)cc2c2nc3n(c(=O)c21)CCS3
-0.5	COc1ccc(/C=C2/SC(=O)N(CCC(=O)Nc3ccccc3C(=O)O)C2=S)cc1
-0.2	CCc1nc(SCC(=O)O)c(C#N)cc1C
-0.9	Cc1n[nH]c(C)c1S(=O)(=O)N1CCCC(C(=O)Nc2ccc3c(c2)OCCO3)C1 (configuration not stated)
-0.2	O=C(CCCN1C(=O)/C(=C/c2ccccc2Cl)SC1=S)N1CCOCC1
-1.6	C=CCN1C=C2C(=O)C(C)(OC(=O)CCc3ccccc3)C(=O)C=C2C=C1c1ccc(C#N)cc1 (configuration not stated)
-1.8	COc1cccc(CC2(CO)CCCN(Cc3cn[nH]c3C3CCCCC3)C2)c1 (configuration not stated)
-1.0	CN(C)S(=O)(=O)Oc1cc(Cl)ccc1C(=O)Nc1ccc(F)cc1F
-2.7	Cc1cc(S(=O)(=O)Nc2c(NC3CCCCC3)c3ccccc3oc2=O)ccc1F
0.6	Cc1ccc(NC(=O)CCC(=O)N/N=C/c2ccco2)c(C)c1
-0.8	CCc1ccc(C(O)(CC)C(CN2CCOCC2)c2ccccc2)cc1 (configuration not stated)
-1.0	COc1ccc(S(=O)(=O)c2ccccc2)cc1NC(=O)c1c(F)cccc1F
0.9	CCOC(=O)Cc1csc(NC(=O)c2cc(C)cc(C)c2)n1
-0.5	Cc1c(C(=O)NCCN(C)C)oc2ccc(S(=O)(=O)N3CCC4(CC3)OCCO4)cc12

Carrying on:
STK33 kinase inh	SMILES
-0.7	Cc1ccc(Cl)cc1N1CCN(C(=O)C2CCC(=O)N(C3CCCCCC3)C2)CC1 (configuration not stated)
0.5	CCc1ccc(C2C(C#N)=C(N)N(N3CCOCC3)C3=C2C(=O)CC(C)(C)C3)s1 (configuration not stated)
1.8	CCOC(=O)CC(=O)CSc1nc(N)c(C#N)c(-c2ccc(Cl)cc2)c1C#N
-3.1	Cc1ccc(CNS(=O)(=O)c2ccc(C(F)(F)F)cc2)n1C
0.5	COc1cccc(C(=O)OCC(=O)NC(C)CCc2ccccc2)c1O (configuration not stated)
-0.2	COc1cc(NC(=O)COC(=O)c2ccccc2F)cc(OC)c1
-0.3	CCOc1ccc(S(=O)(=O)N2CCCC(C(=O)NCc3ccncc3)C2)cc1 (configuration not stated)
1.7	O=C(NCCCN1CCOCC1)c1ccc(CS(=O)(=O)Cc2ccc(Cl)cc2)o1
-1.1	CCCCNC(=O)Cc1c(O)c2ccccc2[nH]c1=O
-1.2	CCOC(=O)c1cccc(NC(=O)c2cc(C)nn2-c2ccccc2)c1
-1.8	O=C(NCCc1ccccc1)C1CCN(C(=O)c2sccc2-n2cccc2)CC1
-1.8	COc1ccc(NC(=O)O/N=C/c2c(C)nn(C(C)(C)C)c2C)cc1
-0.3	CCOC(=O)c1c(C)oc2ccc(OCc3cc(C(=O)OC)oc3C)cc12
-2.9	CCN(CC)S(=O)(=O)c1ccc(C(=O)N2CCN(CCN3C(=O)c4cccc5cccc(c45)C3=O)CC2)cc1
-0.9	Cc1ccc(NC(=O)C2=CC(c3cccs3)=NS(=O)(=O)N2C)cc1
-0.3	CSc1cccc(CN2CCN(Cc3ccc(F)c(F)c3)C(CCO)C2)c1 (configuration not stated)
-0.8	CCCCN(CCCC)C1=Nc2ccccc2N/C1=C(/C#N)C(=O)OCC
-0.8	CC(C)NC(=O)CN1CCN(Cc2nc(C(c3ccccc3)c3ccccc3)no2)CC1
-1.1	O=C(CSc1nc(=O)n2ccccc2n1)N1CCCc2ccccc21
-1.8	COC(=O)c1ccc(NC(=O)CSc2ccc(-c3ccccn3)nn2)cc1
-0.8	O=C(Nc1nc2ccccc2[nH]1)C1CCN(C(=O)c2ccc(F)cc2)CC1
-1.5	CC(=O)c1ccc(NC(=O)[C@@H]2CCCN2C(=O)OC(C)(C)C)cc1
-1.9	O=C1OCCN1C(=O)[C@H]1[C@H](c2ccc([N+](=O)[O-])cc2)C(c2cccc(Cl)c2)=NN1c1ccccc1
-1.3	O=C1CC[C@@H](OCc2ccccc2)CCN1CC[C@H](Sc1ccccc1)c1ccccc1
0.5	O=C(N/N=C/c1ccco1)c1cc(=O)[nH]c2ccccc12

Going on with the list.
STK33 kinase inh	SMILES
-0.1	CCOC(=O)c1[nH]c(C)c(C(=O)NCCC2=CCCCC2)c1C
-0.3	Cc1ccc2c(CN3CCCc4ccccc43)cc(=O)oc2c1C
0.5	Cc1cccc(N2C(=O)CCC2=O)n1
-3.7	COc1cccc(NS(=O)(=O)c2ccc(C)c(C(=O)N3CCCCC3)c2)c1
0.0	CC(C)(C)c1ccc(OCC(=O)Nc2ccncc2)cc1
1.6	COC(=O)C1=CN(Cc2cccs2)C=C(C(=O)OC)C1c1cccc(O)c1
1.1	O=S(=O)(c1cccc2nonc12)N1CCN(c2cccc(Cl)c2)CC1
-0.1	C[C@H](NC(=O)c1ccco1)C(=O)Nc1ccc(S(=O)(=O)N2CCCC2)cc1
-2.1	CC(C)C(C)(C#N)NC(=O)CSc1ncnc2sc(-c3ccccc3)cc12 (configuration not stated)
-0.8	CCO[C@H]1OC(C(=O)NCc2ccccc2)=C[C@@H](c2cn(C(C)=O)c3ccccc23)[C@@H]1CCCO
0.8	C/C(=N\O)C(C)(C)Nc1ccccc1F
-0.8	CC(OC(=O)c1ccc2c(=O)n3c(nc2c1)CCCCC3)C(=O)Nc1ncc(Cl)cc1Cl (configuration not stated)
1.6	O=C1CC(NS(=O)(=O)c2cccs2)CN1c1ccc(Cl)cc1 (configuration not stated)
-1.5	Cc1cccc(NC(=O)CCC(=O)OCc2ccc(Br)cc2)c1
-0.2	COc1ccccc1C(O)P(=O)(OCC(C)C)c1ccc(N(C)C)cc1 (configuration not stated)
-1.3	Cc1ccc(C23CC4CC(CC(C(=O)NCC(=O)O)(C4)C2)C3)cc1
-0.1	O=C(Cn1cnc2ccccc2c1=O)Nc1nnc(C2CC2)s1
-2.5	CC1CC1C(=O)OCC(=O)Nc1ccc2[nH]c(=O)[nH]c2c1 (configuration not stated)
-0.3	CCOC(=O)CN1Cc2cccc(C(=O)O)c2C1=O
-0.9	CCOC(=O)N1CCC(=NNc2nc(C)cc(=O)[nH]2)CC1
-4.6	CN(C(=O)COC(=O)c1cc([N+](=O)[O-])ccc1Cl)c1ccccc1
-0.6	Cc1cc(C)n2nc(N)c(N=Nc3ccc(Cl)cc3)c2n1
0.3	O=C(CC1C(=O)NCCN1Cc1ccc(Cl)c(F)c1)NCCc1cccnc1 (configuration not stated)
1.4	CC(C)(C)c1ccc(NC(=O)c2ccccc2)c([N+](=O)[O-])c1
-0.4	COc1ccc(OC)c(S(=O)(=O)N2CCCC(C(=O)N3CCC(C(N)=O)CC3)C2)c1 (configuration not stated)
0.6	Cc1ccc(CSc2nc3sc(C)c(C)c3c(=O)n2Cc2ccco2)cc1

Reformatted bar-delimited: 7 of the compounds above.
SMILES | STK33 kinase inh
Cc1cccc(N2C(=O)CCC2=O)n1 | 0.5
COc1cccc(NS(=O)(=O)c2ccc(C)c(C(=O)N3CCCCC3)c2)c1 | -3.7
CC(C)(C)c1ccc(OCC(=O)Nc2ccncc2)cc1 | 0.0
COC(=O)C1=CN(Cc2cccs2)C=C(C(=O)OC)C1c1cccc(O)c1 | 1.6
O=S(=O)(c1cccc2nonc12)N1CCN(c2cccc(Cl)c2)CC1 | 1.1
C[C@H](NC(=O)c1ccco1)C(=O)Nc1ccc(S(=O)(=O)N2CCCC2)cc1 | -0.1
CC(C)C(C)(C#N)NC(=O)CSc1ncnc2sc(-c3ccccc3)cc12 (configuration not stated) | -2.1

Assay outcomes from PubChem BioAssay.
